RanGTP-Impb inh = inhibitors of RanGTP-importin-beta interaction, primary screen, biochemical, FRET, CFP-Ran, YFP-importin-beta, homogeneous; cell-free CFP-Ran/YFP-importin-beta FRET ratio; inhibition, % (no concentration beside the values); AID 2216; actives 1.1% (n = 300,000);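 active = most replicates above 15%; inconclusive = exactly half above 15%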;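 also: 0% = DMSO wells and 100% = Ran loaded with GDP instead of GTP; wells of about 40 µL received 100 nL stock; the first replicate is given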
LANA-H2A inh = blocks KSHV LANA binding to histone H2A/H2B; Q9QR71; AID 2629; actives 0.6% (n = 320,000); inhibition, % (test concentration not listed); cell-free LANA-H2A/H2B peptide, fluorescence polarization; in the data active = inhibition mostly above about 10%, no sharp cut-off; inactive = mostly below about 6.7%;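 also: stock transfer was 7.5 nL into about 10 µL; 0% = median of vehicle wells and 100% = median of positive control wells; one replicate is shown; the record names a cut of 25% in any replicate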
Target sequence (Q9QR71 whole entry, looked up): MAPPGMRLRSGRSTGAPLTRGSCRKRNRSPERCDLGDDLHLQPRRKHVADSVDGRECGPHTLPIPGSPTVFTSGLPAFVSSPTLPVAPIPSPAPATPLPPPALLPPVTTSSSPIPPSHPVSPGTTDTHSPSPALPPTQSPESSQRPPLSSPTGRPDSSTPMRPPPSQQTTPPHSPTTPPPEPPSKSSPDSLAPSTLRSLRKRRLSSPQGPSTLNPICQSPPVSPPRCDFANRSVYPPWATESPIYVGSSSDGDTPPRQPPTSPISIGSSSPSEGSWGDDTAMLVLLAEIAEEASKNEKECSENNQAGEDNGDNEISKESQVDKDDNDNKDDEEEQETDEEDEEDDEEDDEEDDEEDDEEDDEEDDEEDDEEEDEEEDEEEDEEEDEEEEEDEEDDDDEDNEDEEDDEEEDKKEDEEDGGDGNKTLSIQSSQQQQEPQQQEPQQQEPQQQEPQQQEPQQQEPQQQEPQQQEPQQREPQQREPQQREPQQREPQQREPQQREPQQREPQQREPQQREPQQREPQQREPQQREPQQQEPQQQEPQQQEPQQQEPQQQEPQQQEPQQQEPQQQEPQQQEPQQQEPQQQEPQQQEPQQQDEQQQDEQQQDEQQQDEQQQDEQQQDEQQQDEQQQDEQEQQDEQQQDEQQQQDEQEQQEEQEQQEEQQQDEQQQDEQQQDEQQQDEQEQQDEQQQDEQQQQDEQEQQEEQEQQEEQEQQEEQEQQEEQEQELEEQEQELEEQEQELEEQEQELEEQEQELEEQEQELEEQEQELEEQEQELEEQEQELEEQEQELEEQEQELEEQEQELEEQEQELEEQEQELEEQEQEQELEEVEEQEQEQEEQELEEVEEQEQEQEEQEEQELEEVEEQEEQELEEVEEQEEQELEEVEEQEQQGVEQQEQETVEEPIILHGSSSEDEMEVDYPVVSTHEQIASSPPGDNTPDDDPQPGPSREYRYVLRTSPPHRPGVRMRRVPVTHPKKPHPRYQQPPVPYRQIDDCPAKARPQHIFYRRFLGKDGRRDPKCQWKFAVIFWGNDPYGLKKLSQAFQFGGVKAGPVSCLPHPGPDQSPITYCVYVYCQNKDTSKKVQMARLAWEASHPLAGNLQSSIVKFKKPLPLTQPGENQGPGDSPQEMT
Beta cell apopt = beta cell apoptosis inhibition. INS-1E cytokine-induced death, ATP luminescence, 48 h; percent of positive-control rescue, neutral wells zero. protection from apoptosis, % (no concentration beside the values). actives 0.8% (n = 300,000). AID 435005;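 active = all replicates at 75% or more, or half of them and the mean; inconclusive = half reach 75% but not the mean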;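 also: 0% = cytokine-treated negative control wells and 100% = positive control rescue; higher means more ATP so stronger rescue from cytokine killing; wells of about 40 µL received 100 nL stock; the first replicate is given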
MLL AF4-AF9 inh = inhibitors of human MLL-AF4/AF9 interaction; P42568; AlphaScreen, biotin-AF4 peptide binding to FLAG-AF9; inhibition, % at 10 µM; actives 0.47% (n = 350,000);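 active = every replicate reaching a set inhibition limit, whatever the replicate mean, cut at about 25% in these data; inconclusive = mean inhibition reaches that limit but some replicates miss it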;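 also: 0% = plate neutral control median and 100% = total signal loss; the record names both 10 and 1 µM as test concentration; the first replicate is given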
T cruzi inh = blocks replication of Trypanosoma cruzi; actives 1.4% (n = 300,000); inhibition, % (test concentration not listed); T. cruzi beta-gal in NIH3T3, luminescence, 90 h; AID 1885;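 active = mean inhibition across valid replicates above about 55%, limit read from the data; inconclusive = mean below that limit but half or more replicates reach it; inactive = mean below it, under half of replicates reach it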;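 also: signal also drops with host cell toxicity which is not excluded here; 0% = plate median of DMSO wells and 100% = zero luminescence signal; higher percent means less beta-gal luminescence so fewer parasites; stock transfer was 50 nL into about 50 µL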
Calb FLC = C. albicans growth modulation with fluconazole. C. albicans CaCi-2 (fluconazole-resistant clinical isolate) + fluconazole, Alamar Blue growth, 48 h. AID 1979. growth inhibition, % (concentration not given with the values). actives 0.57% (n = 300,000);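 active = most replicates above 75%; inconclusive = exactly half above 75%; inactive = most below 75%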;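 also: all wells also contain fluconazole at 8 µg/ml as a sub-toxic cotreatment; 0% = median of DMSO wells and 100% = median of geldanamycin control wells; wells of about 8 µL received 7.5 nL stock; the first replicate is given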
A1 inh = inhibitors of the anti-apoptotic protein A1, read as caspase activation; MEF A1-2A-BIM cells, Caspase-Glo 3/7 luminescence, 3 h; percent of clofoctol response, vehicle zero; caspase activation, % (no concentration beside the values); actives 0.066% (n = 330,000); AID 2462;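 active = over half of replicate activation scores above 10%, or exactly half above 10 with the replicate mean above 10; inconclusive = replicate mean below 10 yet half the replicates above 10; inactive = over half of replicates below 10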;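 also: wells of about 30 µL received 50 nL stock; many hits fall short of the cut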
Vif TR-FRET = inhibitors of Vif binding to APOBEC3G peptide, primary screen, biochemical, TR-FRET, GST-Vif 1-94, biotin-A3G peptide, dose response retest (AID 1117319). TR-FRET GST-Vif / biotin-A3G peptide binding; higher % means a stronger effect; test concentration not given here; strong numbers were not always called active. inhibition, %; hits with a dose series show IC50 in µM. actives 0.57% (n = 260,000);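 active = above the screen mean plus three standard deviations and confirmed in dose response; inconclusive = results disagree or hit not tested in dose response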;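 also: Vif residues 1-94 fused to GST binding biotinylated APOBEC3G peptide 110-148; 0% = full assay without inhibitor and 100% = GST in place of GST-Vif; retest series ran down from 100 µM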
Numbers without * were called inactive; u = inconclusive; x = no result given; & = joins results of further samples. Compounds as they come; overall some 4.3% were active at least once.

SMILES	RanGTP-Impb inh	LANA-H2A inh	Beta cell apopt	MLL AF4-AF9 inh	T cruzi inh	Calb FLC	A1 inh	Vif TR-FRET
CCOC(=O)c1csc(COc2ccc(OC)cc2)n1	6.4	-3.0	5	-1.1	3	2	-2.4	-8%
O=C(Nc1ccc(OC(F)F)cc1)c1cc[n+]([O-])cc1	-1.9	-4.2	x	-1.2	-3	-6	0.7	x
Nc1nnc(-c2ccco2)s1	4.9	10	-3	x	-7	14	0.9	16%
CN1CCN(c2nc3c(c(=O)[nH]c(=O)n3C)n2Cc2cccc(Br)c2)CC1	1.4	1.5	x	0.6	8	-2	-0.4	x
COc1ccc(CCCc2nc3ccccc3[nH]2)cc1	u	-1.3	-2	0.6	17	4	-1.0	x
O=C(CNC(=O)c1ccco1)NCC(=O)OCc1ccccc1Cl	-0.6	0.7	10	0.0	-8	5	0.1	x
COc1cccc(/C=N/NC(=O)CC(C)O)c1OC/C=C/c1ccccc1 (stereo not given)	-1.9	-0.1	12	-0.2	16	2	0.8	x
C/C(=N\NS(=O)(=O)c1cccc([N+](=O)[O-])c1)c1cccnc1	u	17	2	-1.2	-13	-5	-0.5	u
O=c1nc2n(c3ncccc13)CCC2	2.1	-0.8	-4	4.0	-11	0	0.4	8%
Cc1cc(C(=O)Nc2sc3c(c2C#N)CCC(C)C3)cs1 (stereo not given)	1.3	3.9	6	x	12	-2	-2.3	-13%
COc1cccc(/C=C/C(=O)NNC(=O)c2ccncc2)c1OC	x	0.6	4	-4.9	x	x	0.5	-3%
CC1Nc2ccccc2C(=O)N1NS(=O)(=O)c1ccccc1 (stereo not given)	0.0	1.9	-5	-3.6	-11	-6	1.1	x
Cc1ccc(N(CC(=O)Nc2ccc3c(c2)OCCO3)S(C)(=O)=O)cc1	4.2	5.5	-5	-0.2	-12	4	-0.6	x
CCOC(=O)c1ccc(N2NC(=O)/C(=C/c3ccc(OC(=O)c4ccco4)c(OC)c3)C2=O)cc1	1.6	3.0	6	x	7	-37	0.1	x
CC(C)[C@H](NC(=O)c1ccccc1)C(=O)OCC(=O)NCc1ccc2c(c1)OCO2	x	5.8	0	-1.5	x	x	-1.2	-1%
COC(=O)c1ccc(CN2CCC(CO)(CCOc3ccccc3)CC2)cc1	0.0	-5.3	-6	-8.3	17	-10	-0.1	x
CC(=O)Nc1cc(Br)ccc1O	2.6	5.7	-4	0.0	-18	9	0.7	x
Clc1ccc(Cn2cccn2)cn1	u	8.0	0	-4.3	-10	-3	0.6	-4%
O=C(CCCCC(=O)Nc1ccc(F)cc1F)Nc1ccc(F)cc1F	-1.5	-89	133*	-3.3	-7	1	-1.5	x
COc1ccccc1C(=O)NC(=O)COC(=O)CCS(=O)(=O)c1ccc(C)cc1	-0.6	-2.4	-11	-11	-8	7	u	x
CCc1nnc(NS(=O)(=O)c2ccc(NC(=O)Nc3ccc(OC)cc3)cc2)s1	-2.7	-3.3	x	-2.4	-5	7	-0.1	x
CC(=O)c1c[nH]c(C(=O)NCc2cccc(C(F)(F)F)c2)c1	4.5	-4.1	1	-2.1	1	-2	-0.6	-5%
Cc1ccc2cc(C#N)c(N3CCCN(C(=O)c4cnccn4)CC3)nc2c1	6.2	1.4	-5	-0.4	5	28	0.4	x
N#CCCn1c(O)c(N=NC(=O)CNC(=O)c2cccs2)c2ccccc21	0.7	-0.2	-5	-4.0	-3	-15	0.8	x
Cc1nc(C(=O)N(C)C)nn1-c1ccc([N+](=O)[O-])cc1	1.6	5.6	1	-0.3	-6	-6	0.4	17%
CCOC(=O)c1cccc(Nc2ncnc3ccccc23)c1	-0.9	-2.1	12	x	9	-12	-0.2	1%
O=C(N/N=C/C=C/c1ccccc1)c1ccc(Br)cc1	-5.0	0.7	5	x	5	-1	0.1	26%
Clc1ccc(N/N=C/c2ccncc2)cc1Cl	-9.6	-3.7	x	x	38	u	-1.3	x
Fc1ccc(/C=N/NC(=S)Nc2cccnc2)cc1F	0.3	-1.9	3	-2.7	9	25	0.5	-1%
COc1nc(Oc2ccc(/C=N/O)cc2)nc(N(C)C)n1	6.1	3.0	3	2.5	-3	12	-0.4	6%
O=C(Nc1nc2ccccc2s1)Nc1ccc([N+](=O)[O-])cc1Cl	0.7	-1.8	9	x	-4	1	-0.1	5%
CC(=O)c1cccc(NC(=O)CSc2nc(N3CCOCC3)nc(N3CCOCC3)n2)c1	-3.0	-2.2	-3	-14	12	2	0.6	x
CCOc1cc(/C=C(\C#N)C(=O)NCC2CCCO2)ccc1OCC(N)=O (stereo not given)	-2.5	1.4	0	-3.1	-13	105*	1.6	10%
CCC1CCCCN1CC(O)COCc1cccc(OC)c1 (stereo not given)	-3.6	-4.1	x	0.4	3	5	1.7	x
Cc1ccc(C)c(S(=O)(=O)NNC(=O)c2sc(NS(=O)(=O)c3ccccc3)nc2C)c1	-5.7	4.1	-2	-19	-10	x	0.1	x
CCn1c(=O)c(=O)[nH]c2c(=O)oc3ccc(S(=O)(=O)Nc4ccc(OC)cc4)cc3c21	1.9	-8.5	3	4.7	-7	-32	0.3	x
Cc1ccc(NC(=O)CSc2nnc(C3CC3)n2C)cc1S(=O)(=O)N1CCCCC1	x	-3.1	-10	1.2	x	x	0.0	x
COc1ccc(-c2cc3c(=O)n(CC(=O)NCCN4CCCC4)nc(C)n3n2)cc1	0.0	2.1	-12	2.1	-6	41	0.1	x
CC(C)(C)C(O)CN1CCCC1 (stereo not given)	1.8	-0.9	1	0.3	5	5	-0.5	3%
CC(=O)c1ccc(O)c(CSc2nncn2C)c1	2.1	-1.6	1	-1.0	-15	-1	-0.2	4%
COc1ccc(Cn2c(=S)[nH]c3ccccc3c2=O)cc1	-1.7	-1.1	3	-2.4	0	6	0.2	3%
COc1ccc(CCC(=O)OCC(=O)Nc2ccc(OC)c(OC)c2)cc1OC	-2.6	-1.3	-2	-8.3	-5	-9	-2.2	x
O=C(c1ccco1)N1CCN(C(=O)c2cc(-c3ccccc3F)no2)CC1	0.9	2.8	-4	3.6	-8	11	-0.2	x
CN(C(=O)c1cc(-n2cnnc2)ccc1Cl)c1ccccc1	9.4	0.3	5	x	-6	3	1.0	26%
CCCC(=O)Nc1nc2c(c(=O)[nH]1)CCCC2	-1.5	-1.1	4	x	5	4	u	-2%
O=C(/C=C/c1ccc2ccccc2c1)c1ccoc1	u	4.0	2	x	-1	0	-0.2	3%
CC(Sc1nnc(C2CC2)n1Cc1ccccc1)C(=O)N1CCNC1=O (stereo not given)	x	2.9	0	0.4	x	x	1.3	-5%
Cc1ccc(SCc2cc(=O)[nH]c(N3CCN(C)CC3)n2)cc1	2.8	-3.2	-1	x	-21	9	-0.1	1%
CC1CN(S(=O)(=O)c2ccc(-c3nc4ccccc4s3)cc2)CC(C)O1 (stereo not given)	-2.7	0.7	-4	x	-6	-12	0.9	-4%
CN(CC(=O)NC1CCN(Cc2ccccc2)CC1)S(=O)(=O)c1ccc(Cl)s1	x	x	1	-0.2	x	x	0.8	-7%
Continuation:
SMILES	RanGTP-Impb inh	LANA-H2A inh	Beta cell apopt	MLL AF4-AF9 inh	T cruzi inh	Calb FLC	A1 inh	Vif TR-FRET
N/C(=N/O)c1nc(N2CCCC2)nc(N(c2ccccc2)c2ccccc2)n1	-1.2	-2.5	4	x	30	0	0.0	2%
CCC(=O)Nc1cc(-c2nn(CC(=O)N3CCCCC3)c(=O)c3ccccc23)ccc1N1CCOCC1	0.2	-1.3	-7	x	14	4	-0.2	1%
O=C(CC1CC2CCC1C2)N1CCN(S(=O)(=O)c2ccccc2F)CC1 (stereo not given)	x	2.8	5	0.5	x	x	0.3	x
NC(=S)N=Nc1c(O)[nH]c2ccccc12	-2.7	x	6	x	-6	-4	-0.2	14%
O=C1c2ccccc2NC(c2ccccc2Cl)N1N=C1CCCCCC1 (stereo not given)	1.2	2.1	1	6.0	9	-2	-0.5	-2%
C=CCOc1ccccc1CN1CCSCC1	0.3	1.4	-5	x	-1	6	1.2	-1%
O=C(Nn1c(-c2ccccc2)nc2ccccc2c1=O)C1CCC1	-8.2	3.6	-6	x	-15	-15	0.5	1%
COc1ccc(CCNC(=O)C2CC(=O)N(c3ccc(F)cc3)C2)cc1OC (stereo not given)	-5.5	0.0	-2	x	-21	-4	-1.7	-5%
CCCCN(C(C)=O)c1ccc(S(=O)(=O)NC2=NCCCCC2)cc1NC(C)=O	x	-5.0	-9	1.8	x	x	1.1	x
Cc1ccc(C)c(OCc2cc(C(=O)N3CCNC(=O)C3)no2)c1	-1.6	6.2	-3	2.9	-10	-34	0.4	x
C[C@@H]1CN([C@@H](C)CO)C(=O)c2cccc(NS(C)(=O)=O)c2O[C@H]1CN(C)Cc1ccc(C(=O)O)cc1	x	0.9	-2	-0.1&-1.1	x	x	-0.5	x
Cc1ccc(C(=O)NCc2ccccc2CN2CCCC2)cc1S(=O)(=O)N1CCOCC1	x	-8.0	0	2.0	x	x	u	-13%
CC(O)CNc1ccc([N+](=O)[O-])cc1S(=O)(=O)N1CCOCC1 (stereo not given)	-1.3	0.3	4	-2.2	0	-22	0.5	6%
On1c2c(c3c4nonc4ccc31)CCCC2	-4.2	2.1	-9	x	-16	57	0.5	19%
c1csc(CNCCCN2CCOCC2)c1	1.6	-2.7	-4	x	7	3	0.6	-1%
Clc1cccc(Cl)c1Cn1cnc2c(NCc3ccco3)ncnc21	1.0	1.3	-1	2.6	11	-2	1.3	16%
CC1=CC(=C(C#N)C#N)C=C(C)N1CCN1CCNCC1	8.5	-0.5	4	-6.4	-2	4	1.4	-4%
COc1ccc(NC(=O)NCc2cccn2C)c(OC)c1	-0.9	-1.8	4	x	-1	-3	0.6	10%
CCOc1ccc(OCC(=O)c2c(O)c3ccccc3oc2=O)cc1	-1.4	1.4	-3	x	-4	2	-0.4	9%
Cc1ccc(/C=C2\SC(=S)N(CCC(=O)NNS(=O)(=O)c3ccc(C)cc3)C2=O)cc1	4.4	12	-4	-9.7	10	-12	-0.7	15%
Cc1sc(NC(=O)CN(CCc2ccccc2)C(=O)C2CC2)c(C(N)=O)c1C	-2.0	-2.5	6	-7.6	-1	38	0.5	-9%
CCn1c2ccccc2c2cc(NC(=O)COC(=O)c3cc(S(N)(=O)=O)c(Cl)cc3Cl)ccc21	1.1	-2.3	3	-28	1	-1	0.5	x
CC(C)N1C(=O)CCC1C(=O)N1CCCc2ccccc21 (stereo not given)	-3.3	1.8	-3	x	-21	8	-1.8	12%
O=C(CN1CCN(c2ccccn2)CC1)Nc1cc(F)ccc1F	3.6	-4.5	-4	-12	3	10	-0.7	-5%
N=c1ncn(Cc2ccccc2)c2nc(SCCOc3ccccc3)[nH]c12	1.8	8.4	-9	-0.5	-31	15	-0.1	12%
O=C(c1ccco1)N1CCN(Cc2nc3cc(Cl)ccc3c(=O)[nH]2)CC1	-0.4	-0.6	1	-3.2	-5	-15	0.0	30%
COCCn1c(-c2ccccc2)nc(=S)c2c1CC(C)(C)OC2	-0.1	-0.9	0	x	-15	-9	-0.1	-5%
C[n+]1cc(-c2ccccc2)n2c1CCCCC2	-1.7	0.8	6	x	-20	-1	0.3	4%

Compound activity (PubChem)
